Sfp inh = blocks B. subtilis Sfp PPTase activity; Q9F4F7; hit rate 3.5% among 310,000; Potency, µM, for inactives: max response, negative = inhibition, most hits filed as inhibitors; Biochemical Sfp PPTase activity, qHTS; active means well fitted inhibition curve with a large enough effect; inconclusive means small, poorly fitted or top-dose-only effect, or another doubt; inactive means no such curve, though single readings can be large or run the other way;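 further: the enzyme is Sfp with the accession as filed and its product quenches rhodamine fluorescence; potency means the concentration at half of the fitted maximal effect; 0% = enzyme reaction without inhibitor and -100% = no enzyme wells; top concentration of the series not given in the record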
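Step 1, compound plus 15 nM Sfp-PPTase, 15 min, room temperature. Step 2, add rhodamine-CoA (5 uM) and BHQ-2-YbbR (12.5 uM). Step 3, read 525/598 nm fluorescence at 0 and 30 min.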
TRPV1 PAM = enhances activation of the human vanilloid receptor TRPV1; potentiation, % at 8.33 µM; hit rate 0.02% among 320,000; AID 540277; TRPV1-expressing cells, Fluo-8 calcium influx, capsaicin EC20 potentiation; host cell line not named in the record; control for the full effect not named in the record; active means potentiation above 80%; inconclusive means 30% to 80%; inactive means below 30%; further: 0% is about no effect
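TRPV1-expressing cells were cultured overnight at 35.5C and loaded with Fluo-8 calcium dye for 40 to 90 min at room temperature. After a 10 s baseline, compound was added and calcium influx was read kinetically for 3 min (ex 480/em 520 nm).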
PINK1 modulator = changes PINK1 expression. PINK1 immunofluorescence, high-content cytometry, 24 h. Potency, µM (doses to about 76.6 µM), inactives show at the top dose activation (PINK1 increase), hits mostly activators. hit rate 0.2% among 410,000; active = well fitted activation curve with a large enough effect; inconclusive = small, poorly fitted or top-dose-only effect; inactive = flat fitted curve, though single readings scatter; cell line not stated here;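 further: potency means the concentration at half of the fitted maximal effect; % of control where 0% means no effect; nearly all actives have a fitted effect of over 65% in size; a mitochondrial uncoupler was the plate control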
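PINK1 protein level read as immunofluorescence by microplate cytometer in a fixed, stained stable cell line after 24 h exposure to five compound concentrations, with CCCP as control.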
D2 potentiator = human D2 receptor positive allosteric modulation. DiscoveRx D2 beta-arrestin cells, luminescence, 90 min; 100% = 57 uM dopamine signal. potentiation, % (test concentration not listed). hit rate 0.23% among 360,000. P14416; active = potentiation of 50% or more; inconclusive = 30% to 50%; inactive = 30% or less;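 further: compound concentration not given in the record; tested on top of an EC20 dose of dopamine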
Target sequence (P14416 whole entry, looked up): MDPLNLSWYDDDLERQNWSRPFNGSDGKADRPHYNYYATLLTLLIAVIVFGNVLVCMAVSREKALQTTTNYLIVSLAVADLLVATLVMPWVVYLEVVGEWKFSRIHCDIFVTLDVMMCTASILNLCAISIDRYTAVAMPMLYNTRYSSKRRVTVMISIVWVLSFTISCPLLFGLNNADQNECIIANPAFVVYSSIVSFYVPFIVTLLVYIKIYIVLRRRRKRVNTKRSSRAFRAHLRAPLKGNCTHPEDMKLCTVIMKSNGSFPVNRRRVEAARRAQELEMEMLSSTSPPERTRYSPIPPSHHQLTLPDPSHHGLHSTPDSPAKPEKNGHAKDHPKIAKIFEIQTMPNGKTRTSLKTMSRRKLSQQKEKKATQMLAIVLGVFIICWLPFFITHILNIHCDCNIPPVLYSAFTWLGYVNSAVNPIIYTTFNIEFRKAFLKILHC
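D2 cells co-treated with compound plus 50 nM dopamine (EC20) for 90 min at 37 deg C to detect potentiation. Beta-arrestin recruitment was read as enzyme-fragment luminescence after 1 h at ambient temperature. Full response was set by 57 uM dopamine.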
CtBP-E1A inh = CtBP/E1A binding inhibition | activity change, % (concentration not given with the values) | AID 651724 | hit rate 0.49% among 340,000 | AlphaScreen GST-E1A/His-CtBP binding, 1536-well; active compounds read low; control for the full effect not named in the record; in the data active means activity change below about -65%; inconclusive means about -30% to -65%; inactive means above about -30%; further: on the % scale 0 is the no-effect control and ±100 the full control effect
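In 5 uL wells, 23 nL compound meets equimolar GST-E1A and His-CtBP (5X stock 125 nM each) for 2 h, 37 °C. Beads (5X, 50 ug/mL) then 1 h, 37 °C, dark.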
Six1-Eya2 inh = blocks human Six1 binding to Eya2 | activity change, % (concentration not given with the values) | hit rate 0.56% among 360,000 | Q15475+O00167 | AlphaScreen GST-Six1/His-Eya2 binding, biochemical; active compounds read low; control for the full effect not named in the record | AID 651725; in the data active = activity change below about -65%; inconclusive = about -30% to -65%; inactive = above about -30%; further: on the % scale 0 is the no-effect control and ±100 the full control effect
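AlphaScreen luminescence read after one hour at 37 °C in darkness. Pin-transferred compounds met GST-Six1 and His-Eya2 protein (5X stock 250 nM/500 nM) plus glutathione donor and Ni-chelate acceptor beads (5X, 50 ug/mL).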
D2 agonist = activates the human D2 dopamine receptor; P14416; DiscoveRx PathHunter D2 beta-arrestin, luminescence, 90 min; 100% = 57 uM dopamine signal; activation, % (no concentration beside the values); hit rate 0.084% among 360,000; AID 624465; in the data active = activation above about 40%; inconclusive = about 15% to 40%; inactive = below about 15%; further: compound concentration not given in the record; the text of the record calls up to 30% inactive
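Agonist mode: compounds alone added to overnight-plated D2 PathHunter cells for 90 min at 37 C, with 57 uM final dopamine (EC100) defining full response. Beta-arrestin recruitment detected by chemiluminescent reagent, read after 1 h at ambient temperature.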
* marks the source's active call; other numbers are inactive results; u = inconclusive; x = not tested or not shown; & = joins results of further samples.

Screens in order: D2 agonist, PINK1 modulator, CtBP-E1A inh, Sfp inh, Six1-Eya2 inh, D2 potentiator, TRPV1 PAM
(1) O=C1NCCNC1(c1c[nH]c2ccccc12)C(F)(F)F (stereo not drawn)
 : -5.5, 2.2%, 4, 6%, 12, -2, -3
(2) COc1ccc(/C=C/C(=O)O)cc1Cl
 : -2.9, -1.4%, 9, 14%, -2, -1, 18
(3) CCCOC(=O)C1[C@H]2C(=O)N(CC3CCCO3)C[C@]23C=C[C@H]1O3 (stereo partly drawn)
 : -2.3, 2.2%, 3, 4%, 9, 1, 3
(4) CC1(C(=O)NS(=O)(=O)c2ccccc2Cl)CCN1C(=O)c1cccc2ccccc12 (stereo not drawn)
 : -2.9, 1.0%, 1, x, 0, 1, x
(5) CN1C(C(=O)Nc2ccc(OC(F)(F)F)cc2)=CC(c2cccs2)=NS1(=O)=O
 : -2.1, 0.5%&2.2%, x, 17%, -2, -1, 19
(6) O=C(NCCC1=CCCCC1)C(=O)NCc1ccccc1
 : -1.0, 8.7%, 4, 9%, -5, -7, 4
(7) CC(c1ccccc1)n1c(SCC(=O)Nc2ccccc2)n[nH]c1=O (stereo not drawn)
 : -2.9, 1.6%, -7, 11%, 9, -9, 17
(8) O=C(CSc1nc(-c2ccccc2)c(-c2ccccc2)o1)N1CCCCC1
 : -2.3, 0.5%, 5, x, -9, -8, x
(9) CC(C)c1nc(CNC(=O)CC2C(=O)NCCN2Cc2ccoc2)cs1 (stereo not drawn)
 : -2.5, -1.3%, 0, 7%, 0, -3, 6
(10) Nc1nonc1-n1nnc(C(=O)N/N=C/c2cc(Br)cs2)c1-c1ccccc1
 : 6.5, 10%, 0, 13%, 16, -2, 1
(11) CC(=O)Nc1cccc(Oc2ncnc3scc(-c4ccccc4)c23)c1
 : 0.8, 1.3%, 1, 2%, 8, 7, -15
(12) O=C(COC(=O)c1ccc(F)cc1)NCCCc1ccccc1
 : -0.5, 0.0%, -2, -8%, 2, -9, -16
(13) CCOC(=O)N1CCC(NC(=O)c2ccc(CS(=O)c3ccc(Cl)cc3)o2)CC1 (stereo not drawn)
 : 0.2, -0.9%, 3, 21%, 1, 1, 11
(14) CCn1c(O)c(N=NC(=O)c2cccc(S(=O)(=O)N3CCCCC3)c2)c2ccccc21
 : -0.8, -0.5%, 6, -3%, 1, 14, 2
(15) CC(=O)Nc1ccc(NC(=O)CN2C(=O)COc3ccc(S(=O)(=O)N4CCOCC4)cc32)cc1
 : -6.2, -0.5%, 1, 16%, 1, -9, -4
(16) O=C(Nc1ncccc1O)c1cccc(S(=O)(=O)N2CCc3ccccc32)c1
 : -1.5, 1.4%, 9, 4%, -8, -23, -4
(17) O=C(NNS(=O)(=O)c1ccc(F)cc1)C1CCN(Cc2cccc(F)c2)CC1
 : -0.9, -1.0%, -7, 15%, -6, -7, 4
(18) COc1ccc(C(CNC(=O)CNC(=O)c2cccc(C)c2)N2CCOCC2)cc1 (stereo not drawn)
 : -0.1, -1.7%, 9, x, 6, -14, 1
(19) COc1cccc(C2/C(=C(\O)c3ccc4c(c3)OCCO4)C(=O)C(=O)N2CCCn2ccnc2)c1 (stereo not drawn)
 : 2.1, -0.7%, -2, 15%, -1, -7, -4
(20) COc1cc(-c2noc(C)c2/C=C/c2ccc(C(=O)O)cc2)cc(OC)c1OC
 : -1.3, 4.9%, -1, -2%, -23, -2, 27
(21) COC(=O)CCN(Cc1cc(OC)ccc1OC)S(=O)(=O)c1ccccc1Br
 : -1.2, 0.6%, -11, x, -8, -1, x
(22) COc1ccc(-c2coc3c(C(=O)NCc4ccc(OC)c(OC)c4)cccc23)c(C)c1
 : 10, -0.3%, -19, x, -16, -11, x
(23) COc1ccc(NC(=O)c2ccccc2C(=O)N2CCCCC2)cc1
 : -1.9, 1.4%, 13, 9%, -3, -7, 1
(24) O=C(c1ccco1)N1CCN(C(=O)c2cnn(-c3ccc(F)cc3)c2-n2cccc2)CC1
 : -2.6, 1.4%, -18, x, 4, 2, x
(25) CCOC(=O)c1c(NC(=O)CCC(=O)N(CC)CC)sc2c1CC(C)(C)OC2
 : -2.6, 1.5%, -3, -8%, 4, -20, -31
(26) O=C(c1ccc(S(=O)(=O)Cc2cc(F)ccc2F)c([N+](=O)[O-])c1)N1CCOCC1
 : 3.7, 4.9%, 2, x, -4, -1, x
(27) CCS(=O)(=O)N1CCC(C(=O)Oc2ccc(Br)cc2)CC1
 : 2.9, 1.8%, -21, 17%, -15, 1, -1
(28) C/C(CC(=O)NC(C)C)=N\NC(=O)C(c1ccccc1)c1ccccc1
 : -6.6, -0.1%, 3, -1%, 7, -7, 3
(29) O=C(N[C@@H]1C[C@H]2CC[C@@H]1C2)c1ccco1
 : 4.4, -0.1%, -9, 10%, 3, -5, 5
(30) CCCCC[C@@H](C)N1C[C@@H](COCc2ccccc2)Oc2cc(N3CCC[C@H]3COC)ccc2S1(=O)=O
 : x, 2.3%, -1, x, -7, x, x

In the list so far, 3 have bromine:
Screens in order: D2 agonist, PINK1 modulator, CtBP-E1A inh, Sfp inh, Six1-Eya2 inh, D2 potentiator, TRPV1 PAM
(10) Nc1nonc1-n1nnc(C(=O)N/N=C/c2cc(Br)cs2)c1-c1ccccc1
 : 6.5, 10%, 0, 13%, 16, -2, 1
(21) COC(=O)CCN(Cc1cc(OC)ccc1OC)S(=O)(=O)c1ccccc1Br
 : -1.2, 0.6%, -11, x, -8, -1, x
(27) CCS(=O)(=O)N1CCC(C(=O)Oc2ccc(Br)cc2)CC1
 : 2.9, 1.8%, -21, 17%, -15, 1, -1

Going on with the list:
Screens in order: D2 agonist, PINK1 modulator, CtBP-E1A inh, Sfp inh, Six1-Eya2 inh, D2 potentiator, TRPV1 PAM
(31) Cc1c(C(Nc2ccccn2)c2ccc(Cl)cc2)c(=O)n(-c2ccccc2)n1C (stereo not drawn)
 : 0.5, -1.7%, 5, -1%, -3, 7, 15
(32) O=C(NC1CC1)C1CCN(S(=O)(=O)c2cc([N+](=O)[O-])ccc2Cl)CC1
 : 14, -1.2%, 0, x, -13, 4, 21
(33) O=C1C2C(c3ccccc3)CC=CC2[C@H](c2ccc(C(F)(F)F)cc2)N1Cc1ccccc1 (stereo partly drawn)
 : -0.4, -1.3%, x, -4%, -2, -14, -13
(34) O=C(c1ccco1)N1CC2(CC(c3ccc(Cl)cc3)=NO2)CN1Cc1ccc(Br)cc1 (stereo not drawn)
 : -2.5, 6.8%, 1, x, -6, 7, x
(35) O=C(Nc1ccc(N=Nc2ccccc2)cc1)c1ccccc1Cl
 : -0.2, 13%, -16, 23%, -29, 5, 2
(36) O=C(COC(=O)c1cc(S(=O)(=O)N2CCc3ccccc3C2)ccc1Cl)NCc1ccco1
 : -3.0, -1.4%, 4, 45µM*, -18, -6, 13
(37) O=C(c1ccc(F)cc1)c1cn(Cc2ccc(F)cc2)c2cc3c(cc2c1=O)OCCO3
 : -2.9, 0.3%, -1, 5%, -9, -4, 6
(38) O=C(CN(C(=O)c1csnn1)c1ccc(Br)cc1)NC1CCCCC1
 : 2.2, 0.6%, -2, 12%, 2, -1, 1
(39) COc1ccc(CNC(=O)N2CCN(c3ccccc3)CC2)cc1
 : 0.8, 0.7%, -11, 27%, 2, -3, -11
(40) CC1CCCC(C)N1C(=O)COc1ccc(C(=O)Nc2ccccc2N2CCOCC2)cc1 (stereo not drawn)
 : 0.5, 1.6%, -12, 16%, 1, 1, 0
(41) O=C(COC(=O)c1ccc(NS(=O)(=O)c2ccc(F)c(F)c2)cc1)NCC1CCCO1 (stereo not drawn)
 : -1.9, 1.5%, 6, 21%, 1, -8, 3
(42) CCOc1ccc(S(=O)(=O)Nc2cccc(C(=O)NCC(c3ccc(OC)cc3)N3CCOCC3)c2)cc1 (stereo not drawn)
 : 1.1, 1.1%, -1, -5%, -11, -9, 5
(43) Cc1c(/C=N/NC(=O)c2cccnc2)cc(C#N)n1C
 : -4.2, 1.2%, -16, 8%, 1, 6, -1
(44) Cc1nc(NC(C)(C)CO)c([N+](=O)[O-])cc1[N+](=O)[O-]
 : 5.4, -2.9%, 3, 32%, -7, 6, -2
(45) Cc1ccc(NNC(=O)c2ccno2)c(C)c1
 : 11, 0.2%, 9, -9%, 2, -2, -6
(46) Cc1ccc(NC(=O)c2ccc(-n3cncn3)c([N+](=O)[O-])c2)cc1F
 : 3.9, 1.7%, -3, x, 2, -1, -3
(47) O=C(O)C1CCN(C(=O)CCN2C(=O)S/C(=C\c3ccccc3)C2=O)CC1
 : -5.3, 0.0%, 11, -1%, 12, 3, 7
(48) O=C(O)C(Cc1ccccc1)NC(=O)C(c1ccccc1)c1ccccc1 (stereo not drawn)
 : -1.8, -2.1%, -1, 19%, 1, -4, 11
(49) CCOC(=O)c1cnc(-c2ccccc2)[nH]c1=O
 : -2.2, -0.7%, -4, -5%, 0, 4, 11
(50) c1ccc2c(c1)ccc1nnc(-c3ccc4c(c3)OCO4)n12
 : -2.0, -0.5%, -1, -18%, 3, -14, u
(51) C/C(=N\NC(=O)CCCNc1ccccc1)c1ccncc1
 : -3.1, 0.9%, 1, 6%, 4, -9, -14
(52) COc1ccc(C(CC(=O)c2ccccc2)CC(=O)c2ccccc2)cc1OC
 : -2.2, 0.9%, -2, -3%, -11, -3, 6
(53) COc1cc(C(=S)N2CCOCC2)ccc1OC(=O)c1ccccc1[N+](=O)[O-]
 : -0.9, 3.4%, -15, -15%, -13, 3, -15
(54) O=C(CCS(=O)(=O)c1ccc(Br)s1)NC1CCCCCC1
 : -4.0, -1.0%, 3, 5%, 2, -13, -16
(55) CC(C)OC(=O)c1c(NC(=O)Cn2cnc([N+](=O)[O-])n2)sc2c1CCCC2
 : -3.0, 6.7%, 0, -8%, -5, -13, -7
(56) Cc1ccc(CNC(=O)CC(C)S(=O)(=O)c2ccc3c(c2)NC(=O)C(C)S3)cc1 (stereo not drawn)
 : 0.5, -2.1%, -1, 16%, -1, 7, 10
(57) Cc1cccc2c1cnn2C(=O)Nc1cc(F)ccc1F
 : -3.1, 0.2%, x, 8%, 1, -15, -2

Results in sequence from the list.
Nos. 19–25 in D2 potentiator: -7, -2, -1, -11, -7, 2, -20
Nos. 19–25 in PINK1 modulator: -0.7%, 4.9%, 0.6%, -0.3%, 1.4%, 1.4%, 1.5%
